Source: PubChem BioAssay
MenB inh – M. tuberculosis MenB inhibitors, primary screen, biochemical, absorbance | 100,000 tested, 0.43% active | 1,4-dihydroxy-2-naphthoyl-CoA synthase (Mycobacterium tuberculosis (strain ATCC 25618 / … | inhibition, %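 (about 12 µg/mL by stock and volumes)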 | MenB enzyme assay, absorbance read-out; some hits fall short of the stated cut;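 active = mean of two replicates above 30%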;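 also: 0% = no compound and 100% = wells with inactive enzyme; the first replicate is given; strong numbers were not always called active; inactives centre near -10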
Target sequence (P9WNP5 whole entry, looked up): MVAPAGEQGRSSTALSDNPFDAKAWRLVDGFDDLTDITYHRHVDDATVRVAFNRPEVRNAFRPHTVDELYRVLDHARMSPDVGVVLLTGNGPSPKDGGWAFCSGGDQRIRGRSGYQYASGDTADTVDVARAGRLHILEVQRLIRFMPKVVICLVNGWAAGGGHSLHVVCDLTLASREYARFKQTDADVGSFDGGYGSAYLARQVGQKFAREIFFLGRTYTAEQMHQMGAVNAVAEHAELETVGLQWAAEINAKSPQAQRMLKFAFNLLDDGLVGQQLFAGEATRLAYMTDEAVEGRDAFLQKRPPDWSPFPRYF
PV pol inh – poliovirus RdRp elongation inhibitors, primary screen, biochemical, fluorescence polarization, total intensity; Genome polyprotein (Poliovirus type 1 (strain Mahoney)), P03300; poliovirus polymerase elongation; active compounds read low; % elongation, % (compound at 16.7 µg/mL); 150,000 tested, 0.66% active; in the data active = % elongation below about 90%; also: some results filed as inactive read as strong as hits
MbtI inh – MbtI salicylate synthase inhibitors, primary screen, biochemical, fluorescence intensity; P9WFX0; purified MbtI enzyme, fluorescence intensity read-out; inhibition, %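 (about 17 µg/mL by stock and volumes)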; 100,000 tested, 0.89% active;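 active = above 50% in both replicates, above 80% if mildly self-fluorescent; inactive = the rest, strongly fluorescent compounds included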;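 also: 0% = mean of negative and 100% = mean of positive controls; one replicate is shown; some compounds called inactive have numbers as strong as hits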
Target sequence (P9WFX0 whole entry, looked up): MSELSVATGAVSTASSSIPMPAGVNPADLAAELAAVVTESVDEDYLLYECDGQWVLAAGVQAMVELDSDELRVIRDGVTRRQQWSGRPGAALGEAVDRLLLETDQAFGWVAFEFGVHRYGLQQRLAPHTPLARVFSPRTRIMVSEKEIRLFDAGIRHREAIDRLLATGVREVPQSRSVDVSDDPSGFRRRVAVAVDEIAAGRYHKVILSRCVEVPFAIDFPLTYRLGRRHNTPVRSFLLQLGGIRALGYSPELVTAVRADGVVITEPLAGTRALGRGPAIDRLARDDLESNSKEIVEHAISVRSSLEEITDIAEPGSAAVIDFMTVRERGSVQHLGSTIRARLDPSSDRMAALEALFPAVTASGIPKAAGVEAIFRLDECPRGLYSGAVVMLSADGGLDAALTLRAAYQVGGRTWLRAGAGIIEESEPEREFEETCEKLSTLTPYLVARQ
PV pol inh intensity – second read-out of PV pol inh, no call of its own (marks repeat the call); % elongation; measured here: total intensity read-out; formula for this scale not given here;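 total fluorescence in place of polarization; lower means less elongation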
Active calls of the source: *; i = inactive; . = no result given; & = joins results of further samples.

mol,MbtI inh,MenB inh,PV pol inh,PV pol inh intensity
CCCn1c(N2CCN(C(=O)Nc3ccc(OC)cc3)CC2)nc2ccccc21,-4,-41,106,101
C=CCOc1ccccc1C1NC(=O)NC(C)=C1C(=O)NCc1ccccc1 (configuration not stated),0,-9,100,101
S=c1[nH]nc(-c2ccccc2)n1C1C=CCCC1 (configuration not stated),4,-33,103,104
O=C(CSc1n[nH]c(-c2ccccc2)n1)NCC1COc2ccccc2O1 (configuration not stated),-7,-26,105,104
O=C(CCc1ccccc1)Nc1ccc(-c2nc3ccccc3o2)cc1,.,8,99,106
O=C(N/C(=C/c1ccc(Br)cc1)C(=O)N1CCCC1=O)c1ccco1,15,-6,104,101
COc1ccc(/C=N/OC(C)=O)c(OC)c1,12,-13,101,105
CN(C)N=Nc1nc[nH]c1C(N)=O,5,-6,97,101
CCCn1c(N)c(N2CCOCC2)c(=O)n(CC(=O)NCc2ccc(F)cc2)c1=O,3,12,106,102
Cc1ccc2cc(CN(Cc3cccnc3)C(=O)c3cccnc3)c(=O)[nH]c2c1,90,24,101,99
COC(=O)c1ccc(CSc2nc3cc(Cl)ccc3n2Cc2ccccc2)o1,-2,-53,101,93
CN(C(=O)CSc1nnc2n1CCCCC2)C1(C#N)CCCCC1,-12,-9,103,100
CC1C(C(=O)Nc2ccccc2)CCCC1(C)C(=O)O (configuration not stated),-22,-41,103,100
CCOc1ccc(-c2nc(C#N)c(NCCOC)o2)cc1,116,-1,100,100
Cn1c(CNC(=O)c2ccc(F)cc2)cc2ccccc21,-9,-25,102,99
Cc1cc2nc(CN3CCCc4ccccc43)cc(=O)n2o1,28,0,98,105
COc1cccc(C2NS(=O)(=O)N=C3CCCCCN32)c1OC(F)F (configuration not stated),3,-13,103,106
CC(C)c1ccc(NC(=O)c2ccc(NS(=O)(=O)c3cccs3)cc2)cc1,7,5,100,102
COc1ccc(C(=O)Nc2n[nH]c(C(F)(F)F)n2)cc1,-5,.,102,103
Cc1ccc(NC(=O)CCc2cn(Cc3ccc(Cl)cc3)c3ccccc23)c(C)c1,-7,-26,105,107
COc1ccccc1-n1c(SC(C)C)nc2ccccc2c1=O,-7,.,103,98
CN(C)c1ccc(C(CNC(=O)c2ccccc2)N2CCCC2)cc1 (configuration not stated),7,8,101,96
CC1CCN(S(=O)(=O)c2cccc(C(=O)NC(C)C)c2)CC1,-22,4,101,103
COc1ccc(C(=O)CSc2nnc(Cc3cc(=O)[nH]c(=O)[nH]3)n2-c2cccc(OC)c2)cc1,-3,-26,101,106
CC(C)C(NC(=O)C1CCCCC1)C(=O)N1CCN(c2ccccn2)CC1 (configuration not stated),-39,3,100,104
COc1ccc(CCC(=O)Nc2ccc(-c3noc(CCc4ccccc4)n3)cc2)cc1,-5,-32,100,104
S=c1cc(-c2ccccc2)n(Cc2ccco2)c2c1CCCC2,28,-75,102,100
Cc1cc(/C=C/C(=O)N(C)Cc2ccco2)c(C)n1-c1ccnn1C(C)C,6,-6,105,111
Oc1c(Cl)cc(Cl)c2cccnc12,-12,-8,98,98
COCCOc1ccc(C(F)(F)F)cc1NC(=O)c1ccno1,0,-18,102,97
FC(F)(F)c1cccc(-c2nc3ccccc3[nH]2)c1,.,5,99,104
O=C(Cn1c(=O)cnc2ccccc21)NC1CCCCC1,14,2,105,99
c1ccc(CN(Cc2ccccc2)c2c3c(nc4ncnn24)CCC3)cc1,22,5,108,110
O=C(O)CCCc1ccc2ccc3cccc4ccc1c2c34,110,-34,101,105
COC(=O)Oc1ccc2c(C)cc(=O)oc2c1,i,-2,99,102
CCOC(=O)c1c(C)oc2c1c(CN1CC(C)OC(C)C1)c(O)c1ccccc12 (configuration not stated),52,-11,103,104
O=C(Cn1cc(C(F)(F)F)cc(Cl)c1=O)Nc1ncccn1,68,19,106,99
COc1ccccc1/C=C/C1C(C(=O)OCC(C)C)=C(C)N=C2SCCC(=O)N21 (configuration not stated),-1,-47,101,107
O=C(CSc1ccccc1)Nc1nc2ccc(Br)cc2s1,0,.,101,105
Cc1ccc2nc(Nc3cccc(O)c3)c3nncn3c2c1,0,2,104,105
CCc1ccc(-n2nnc(S(=O)(=O)c3ccc(CC)cc3)c2N)cc1,-5,-2,100,102
O=C(c1ccc2c(c1)OCO2)N1CCCCCCC1,2,-17,103,105
Cn1cc(C#N)c2ccccc21,-14,-7,102,111
O=C(c1ccc(Cl)cc1)N1CCC(c2nc(-c3ccc(F)cc3)no2)CC1,5,1,103,103
CCOC(=O)c1[nH]c(C)c(C(=O)N2CCCC2)c1C,2,-1,100,106
CCc1cccc(NC(=O)CCCCCC2NC(=O)NC2C)c1 (configuration not stated),-8,-28,107,101
O=C(NCc1ccco1)C1C2C3CCC(C3)C12 (configuration not stated),-4,-5,99,99
COc1ccc(C2OCC(CO)(CO)CO2)cc1,-7,-13,99,98
COC(=O)c1cc(=O)n2ccccc2c1C#N,-167,-101,98,94
O=C1C=CC(=O)N1c1cccc(Cl)c1,100*,4,103,101
CN(Cc1ccccc1)S(=O)(=O)c1ccc2c(c1)CCN2C(=O)C1CC1,-2,-15,102,104
COc1ccc(NC(=O)OCC23COCN2COC3)cc1,.,0,103,107
CCN(c1ccccc1)S(=O)(=O)c1ccc2[nH]c3c(c2c1)CCCC3,4,-46,102,101
Cc1[nH]c2ccccc2c1CN1CCC(Cc2ccccc2)CC1,-8,-19,100,94
Nc1ncnc2c1ncn2CCO,.,-10,105,112
COC(=O)c1ccc(NC(=S)N(C(C)C)C(C)C)cc1,.,-2,102,98
CCCCNc1cc(C)nc(CCC)n1,8,2,104,103
Cc1cc(Oc2ccccc2)nc(Oc2ccc(OCC(N)=O)nn2)n1,-5,-4,101,99
COc1ccc(NC(=O)c2cnn(-c3ccc(C)c(C)c3)c2C2CCNCC2)cc1Cl,6,-1,98,92
O=C(N1CCOCC1)C1(c2ccc(Cl)cc2)CCCC1,-7,-27,101,99

Going on with the list.
mol,MbtI inh,MenB inh,PV pol inh,PV pol inh intensity
CN(C)S(=O)(=O)c1ccc(C(=O)OCC(=O)NCc2ccccc2)cc1,0,-5,108,112
CC(O)CNC1CCCC(C)C1 (configuration not stated),-3,22,103,102
CSc1sc(C(=O)Sc2ccccc2)cc1S(=O)(=O)C(C)C,-7,-8,82*,89*
COC(=O)c1c(/N=C/c2c(O)n(Cc3ccccc3)c(=O)[nH]c2=O)sc2c1CCCC2,.,-24,99,185
N#CCC(=O)Nc1ccc2c(c1)OCO2,-2,.,97,96
Cc1cc(NC(=O)c2ccco2)sc1C,14,13,107,103
C[N+](C)(CCOc1ccccc1)Cc1ccccc1 (tested in a mixture with another compound),11,-7,103,105
O=C1CCC(=O)c2oc3ccccc3c2N1,-81,2,102,100
CCNc1nc(NCC)n2c(SCC(=O)Nc3ccc(CC)cc3)nnc2n1,87*,-68,104,103
CN(C)C(=O)CSc1nc(SCC(=O)N(C)C)n(-c2ccccc2)n1,0,4,100,100
Cc1cccc2cc(CN(Cc3ccccc3)C(=O)c3ccccc3)c(=O)[nH]c12,.,-4,103,97
CCOC(=O)c1cnc(Cc2ccccc2)[nH]c1=O,2,-24,104,104
Cc1ccc(C2=NN(C(=O)COC(=O)c3ccc(-n4cnnn4)cc3)C(c3ccco3)C2)cc1 (configuration not stated),27,-14,99,108
O=C(c1ccccc1)C1CCN(C(=O)c2ccc(Cl)cc2)CC1,13,14,100,102
CC1CCCN(C(=O)c2cc(-c3ccco3)nc3ccccc23)C1 (configuration not stated),-96,.,98,95
CCC1(c2ccccc2)NC(=S)N(c2ccccc2)N1 (configuration not stated),.,-18,102,104
Fc1ccc(-c2cn3c(-c4ccccc4)c(-c4ccccc4)nc3[nH]2)cc1,.,-29,104,109
CCc1ccc(NC(=O)NCCCN2CCN(c3ccccc3)CC2)cc1,-12,8,101,106
CC(C)(C)OC(=O)Nc1cn(-c2ccccc2)nc1-c1ccccc1,9,.,102,99
Cc1cc(/C=N/NC(=S)Nc2cccnc2)c(C)n1-c1cccc(S(=O)(=O)N2CCOCC2)c1,-1,-48,104,115
C=CCSCC1Nc2cc(Cl)c(S(N)(=O)=O)cc2S(=O)(=O)N1 (configuration not stated),5&-15,-4&11,98&101,97&102
CC(=O)Nc1ccc(Nc2c3c4c(cccc4[nH]c2=O)C(=O)c2ccccc2-3)cc1,1,-3,91,122
O=S(=O)(Cc1noc(-c2ccc(OC(F)(F)F)cc2)n1)Cc1ccco1,27,-24,104,105
CCC(C)(C)C(=O)NCc1ccc2c(c1)OCO2,.,4,105,106
CCOC(=O)c1cc2c(N)[nH]nc2[nH]c1=O,-16,-21,101,96
CNC(=O)CCc1cc2ccccc2[nH]1,.,8,104,111
CCCOC(=O)c1cc(-c2ccc(/C=C3\C(=O)N(CCCO)C(=O)C(C#N)=C3C)o2)ccc1Cl,24,-53,103,102
O=C(/C=N/O)Nc1ccc(C(=O)O)cc1,21,-16,103,107
CCOC(=O)c1ccc(Nc2cc(C)nc(C)c2C(=O)OCC)cc1,50,-17,100,103
CN(C)c1ccc(/C=C/C(O)=C2/C(=O)N(C)C3(C)CC2c2ccccc2O3)cc1 (configuration not stated),10,-75,113,131
Cc1csc(NC(=O)CC(C)(C)C)n1,-5,-25,103,112
CCOc1ccc(NC(=O)C2CC=CCC2C(=O)OC(C)CC)cc1 (configuration not stated),.,-2,104,109
CCN(Cc1ccccc1)C(=O)CCN1C(=O)/C(=C\c2ccco2)SC1=S,14,-53,103,105
Cc1[nH]cnc1C(F)(F)F,.,-2,108,108

Taken from the entries so far, 17 compounds:
mol,MbtI inh,MenB inh,PV pol inh,PV pol inh intensity
CCCn1c(N2CCN(C(=O)Nc3ccc(OC)cc3)CC2)nc2ccccc21,-4,-41,106,101
C=CCOc1ccccc1C1NC(=O)NC(C)=C1C(=O)NCc1ccccc1 (configuration not stated),0,-9,100,101
S=c1[nH]nc(-c2ccccc2)n1C1C=CCCC1 (configuration not stated),4,-33,103,104
O=C(CSc1n[nH]c(-c2ccccc2)n1)NCC1COc2ccccc2O1 (configuration not stated),-7,-26,105,104
O=C(CCc1ccccc1)Nc1ccc(-c2nc3ccccc3o2)cc1,.,8,99,106
O=C(N/C(=C/c1ccc(Br)cc1)C(=O)N1CCCC1=O)c1ccco1,15,-6,104,101
COc1ccc(/C=N/OC(C)=O)c(OC)c1,12,-13,101,105
CN(C)N=Nc1nc[nH]c1C(N)=O,5,-6,97,101
CCCn1c(N)c(N2CCOCC2)c(=O)n(CC(=O)NCc2ccc(F)cc2)c1=O,3,12,106,102
Cc1ccc2cc(CN(Cc3cccnc3)C(=O)c3cccnc3)c(=O)[nH]c2c1,90,24,101,99
COC(=O)c1ccc(CSc2nc3cc(Cl)ccc3n2Cc2ccccc2)o1,-2,-53,101,93
CN(C(=O)CSc1nnc2n1CCCCC2)C1(C#N)CCCCC1,-12,-9,103,100
CC1C(C(=O)Nc2ccccc2)CCCC1(C)C(=O)O (configuration not stated),-22,-41,103,100
CCOc1ccc(-c2nc(C#N)c(NCCOC)o2)cc1,116,-1,100,100
Cn1c(CNC(=O)c2ccc(F)cc2)cc2ccccc21,-9,-25,102,99
Cc1cc2nc(CN3CCCc4ccccc43)cc(=O)n2o1,28,0,98,105
COc1cccc(C2NS(=O)(=O)N=C3CCCCCN32)c1OC(F)F (configuration not stated),3,-13,103,106
